# PINK1 modulator = PINK1 expression modulation; PINK1 immunofluorescence, high-content cytometry, 24 h; Potency, µM (doses to about 76.6 µM), for inactives: at the highest dose activation (PINK1 increase), hits mostly activators; 410,000 compounds, 0.2% hits; active = well fitted activation curve with a large enough effect; inconclusive = small, poorly fitted or top-dose-only effect; inactive = flat fitted curve, though single readings scatter; cell line not stated here;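 also: % of control where 0% means no effect; nearly all actives have a fitted effect of over 65% in size; a mitochondrial uncoupler was the plate control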
#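 Stable cell line treated 24 h with compounds at 5 concentrations (CCCP controls), then fixed and immunostained for PINK1 plus nuclear and cell stains; PINK1 immunofluorescence quantified by laser-scanning microplate cytometry.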
# * = called active by the depositor. Potency is read from the fitted curve at half-maximal effect. The list is partial; rates above refer to the full screens.
SMILES,PINK1 modulator
CCOC(=O)c1ccc2c(c1)N(Cc1cccc([N+](=O)[O-])c1)C(=O)c1ccccc1S2,1.4%
CN(C(=O)CSc1nc(C2CCCC2)nc2c1c(=O)n(C)c(=O)n2C)c1ccccc1,0.9%
CCOC(=O)c1c(S(=O)(=O)N2CCC(C(=O)Nc3ccccc3OC)CC2)c(C)n(CC)c1C,-0.7%
CC(C)CCNC(=O)CSc1nc2ccsc2c(=O)n1Cc1ccccc1Cl,0.8%
CCCOc1ccc(C2CC(=O)Nc3c2c(C)nn3-c2nncc(-c3cccc(OC)c3)n2)cc1OC (stereo unspecified),-0.1%
CC(=O)N1CCc2c(sc3c2c(=O)n(CCc2ccccc2)c(=O)n3Cc2ccccc2C)C1,-1.0%
Cn1nc(-c2ccccc2F)c2cc(C(=O)N3CCN(c4ccc(F)cc4)CC3)sc21,-0.9%
Cc1ccc(-c2cc(C(=O)N3CCN(S(=O)(=O)c4ccc(Br)s4)CC3)[nH]n2)cc1C,2.2%
Cc1ccc(NC(=O)CN2C(=O)CCc3cc(S(=O)(=O)N4CCOCC4)ccc32)c(C)c1,1.6%
Cc1ccc(C)c(NC(=O)CN2C(=O)CCc3cc(S(=O)(=O)N4CCCCC4)ccc32)c1,-0.7%
COc1ccc(OC(=O)c2nc(SCc3ccccc3F)ncc2Cl)cc1,0.0%
Cc1ccc(CCNC(=O)c2ccc3c(=O)n(-c4ccc(C)cc4)c(=O)[nH]c3c2)cc1,2.8%
Cc1ccccc1OCC(=O)NCC(c1ccc(Cl)cc1)N1CCCCC1 (stereo unspecified),6.0%
CCc1cccc(C)c1NC(=O)Cn1ncc2c3ccccc3n(Cc3ccccc3)c2c1=O,0.5%
Cc1nc(CC(=O)Nc2ccc(N(C)C)cc2)cs1,-1.6%
CC(C)c1ccc(NC(=O)CSC2=Nc3ccccc3C3=NC(CC(=O)NCCc4ccccc4)C(=O)N23)cc1 (stereo unspecified),0.6%
O=C(Nc1nnc(N2CCCCCC2)s1)Nc1ccccc1C(F)(F)F,0.3%
O=C(Nc1cc(Cl)cc(Cl)c1)c1cc(S(=O)(=O)N2CCC3(CC2)OCCO3)ccc1F,0.4%
O=C(c1ccccc1)c1ccc2nc(N3CCN(c4ccccc4)CC3)c3nncn3c2c1,1.6%
CCS(=O)(=O)N1CCc2cc(C(=O)NCc3ccccc3Cl)ccc21,-0.4%
COc1cc(-c2ccno2)ccc1S(=O)(=O)N1CCN(c2ccccc2)CC1,0.5%
COc1ccc(-c2nc3sc(CCNS(=O)(=O)c4ccc(F)c(C)c4)c(C)n3n2)cc1,-0.5%
O=C(NCCc1ccccc1)C1COc2ccccc2C1 (stereo unspecified),-1.4%
COc1ccc(NC(=O)C(=O)NCCc2csc3nc(-c4ccccc4C)nn23)cc1,3.4%
Cc1c(C(=O)NCCN(C)C)oc2c1-c1nn(Cc3cccc(Cl)c3)cc1CC2,1.0%
COc1cc(OC)c(NC(=O)NCCn2nnc3cc(S(=O)(=O)N(C)C)ccc32)cc1Cl,0.1%
COc1ccc(Nc2nc3c(S(=O)(=O)c4ccccc4)nnn3c3ccsc23)cc1OC,2.6%
Cc1nc2ccccc2n1CCc1nc2c3ccccc3nc(SCc3ccc(C#N)cc3)n2n1,-0.1%
Cc1cccc(OCC(=O)Nc2ccc(OCc3cc(=O)n4cc(C)ccc4n3)cc2)c1,2.1%
COc1ccc(OC)c(NC(=O)COCc2cc(-c3ccc(F)cc3)on2)c1,-0.2%

# Exported as labelled records: part of the list above
COc1ccc(OC(=O)c2nc(SCc3ccccc3F)ncc2Cl)cc1
  PINK1 modulator: 0.0%

Cc1ccc(CCNC(=O)c2ccc3c(=O)n(-c4ccc(C)cc4)c(=O)[nH]c3c2)cc1
  PINK1 modulator: 2.8%

Cc1ccccc1OCC(=O)NCC(c1ccc(Cl)cc1)N1CCCCC1 (stereo unspecified)
  PINK1 modulator: 6.0%

CCc1cccc(C)c1NC(=O)Cn1ncc2c3ccccc3n(Cc3ccccc3)c2c1=O
  PINK1 modulator: 0.5%

# More entries:
SMILES,PINK1 modulator
CC(C)(C)OC(=O)N1CCC(c2c(C(=O)NCc3ccc(F)cc3)cnn2-c2ccc(F)cc2)CC1,0.1%
CC(C)c1ccc(C2=CC(c3cccc(Cl)c3)n3c(nc4ccccc43)N2)cc1 (stereo unspecified),0.9%
Cc1ccc(/C=C(\C#N)C(=O)Nc2cc(C)ccc2C)cc1,12%
Cc1ccc2occ(-c3cc(-c4ccc(Cl)cc4)nc4c3COc3ccccc3-4)c(=O)c2c1,0.3%
Cc1ccc(CNC(=O)c2ccc3c(c2)nc2n3CCOC2)cc1,0.1%
Cc1ccccc1OC(C)C(=O)NCCNC(=O)C(C)Oc1ccccc1C (stereo unspecified),-0.6%
O=C(NCc1cccnc1)c1cnn(-c2nccc(-c3cccs3)n2)c1C1CC1,-1.3%
COc1ccc(N(C)C(=O)c2cc(S(=O)(=O)N3CCc4ccccc43)cn2C)c(OC)c1,-0.6%
COc1ccc(OC)c(CNC(=O)c2ccc3c(c2)c(C)c(C)n3Cc2ccc(Cl)cc2)c1,4.6%
CC(=O)Nc1ccc(S(=O)(=O)NCCc2csc3nc(-c4ccc(Cl)cc4)nn23)cc1,2.1%
COc1ccc(CN2CCN(c3ncnc4sc5c(c34)CCCC5)CC2)cc1F,-0.7%
O=c1oc2ccc3ccccc3c2cc1-c1nnc(Nc2ccc(Cl)cc2Cl)s1,-0.9%
COc1ccc(C(=O)NCc2ccc3c(c2)CCN3C(C)=O)cc1OC,-0.8%
N#CN=c1snc(-c2ccccc2)n1-c1ccc(Cl)cc1,-0.3%
O=C(c1ccc2c(=O)n(CCc3ccccc3)c(=O)[nH]c2c1)N1CCN(c2ccc(Cl)cc2)CC1,6.9%
COc1ccccc1Cn1c(CNS(=O)(=O)c2c(C)cc(C)cc2C)nc2cccnc21,0.5%
COc1ccc2c(c1)CC(C(=O)Nc1c(C)cc(C)cc1C)CO2 (stereo unspecified),0.7%
Cc1ccc2nc(N3CCN(c4cccc(Cl)c4)CC3)c(-n3nc(C)cc3C)nc2c1,1.1%
COc1cccc(NC(=O)Cn2c(=O)n(CC(=O)NCCc3ccccc3)c(=O)c3sccc32)c1,1.2%
COc1ccc(NC(=O)N(C(C)C)C2CCN(C(C)=O)CC2)c(OC)c1,-0.3%
COc1cc(NC(=O)CCc2nc3cccnc3n2Cc2cccs2)cc(OC)c1OC,1.4%
COc1cc(OC)cc(-c2nc3nc(C)c(CCC(=O)Nc4cc(C)cc(C)c4)c(C)n3n2)c1,5.0%
COc1ccc(CNc2nc(-c3ccccc3)nn2C(=O)c2ccccc2OC)cc1,0.3%
Cc1oc2ncn(CC(C)C)c(=O)c2c1C(=O)N1CCN(c2ccccc2F)CC1,0.1%
Cc1ccc(NC(=O)CSc2nc3nccnc3c(=O)n2CCc2c[nH]c3ccccc23)c(C)c1,1.4%
CCOc1ccccc1CNC(=O)C1CCN(C(=O)N2CCOc3ccc(Cl)cc32)CC1,-2.2%
Cc1cnc(-n2ncc(C(=O)N[C@H]3CCCCNC3=O)c2C2CC2)nc1-c1cccs1,1.0%
CCOc1ccc(NC(=O)Cn2cc(C(=O)c3ccccc3)c(=O)c3cc(OC)ccc32)cc1,2.4%
O=C(Cn1cc(S(=O)(=O)N2CCN(c3ccccc3F)CC2)c2ccccc2c1=O)Nc1ccc(F)cc1Cl,1.4%
Cc1cccc2cc(-c3nc(-c4cccs4)no3)c(=O)oc12,2.5%
CCCCN(C)CCNC(=O)c1cc(-c2ccc(Cl)s2)nc2ccccc12,1.9%
O=C(c1cc2c(=O)oc3ccccc3c2s1)N1CCN(c2ccccc2)CC1,2.0%
CCOc1ccc(S(=O)(=O)NCc2nc3cccnc3n2Cc2ccccc2OC)cc1,1.6%
Cn1c(=O)n(CCCc2ccccc2)c(=O)c2c1nc1n2CCN1c1ccccc1,1.6%
Cc1ccc(C)c(N2CCN(C(=O)C(C)n3c(C)c4cnn(-c5ccccc5)c(=O)c4c3C)CC2)c1 (stereo unspecified),-0.2%
Cc1ccc(N2C(=O)N(Cc3cc(=O)n4ccccc4n3)c3ccccc3S2(=O)=O)cc1Cl,-1.2%
Cc1cccc(NC(=O)CSc2nc(C)cc(C)c2C(=O)Nc2ccc(Cl)cc2)c1,7.6%
COc1ccc(-c2cn3c(n2)sc2cc(C(=O)NCc4cccc(F)c4)ccc23)cc1,6.0%
Cc1cc(C)cc(N(C)S(=O)(=O)c2nnc(NC(=O)COc3ccc(Cl)cc3)s2)c1,0.0%
CCc1nn(CC(=O)NCc2ccc(OC)cc2OC)c(=O)c2cc3c(OC)cccc3n12,1.5%
COc1ccc(-c2nn3c(-c4cc(C)[nH]n4)nnc3s2)cc1,0.4%
Cc1ccc(N2C(=O)C(CC(=O)Nc3ccc(F)cc3)N(Cc3ccc4c(c3)OCO4)C2=O)cc1 (stereo unspecified),0.4%
CC(C)NC(=O)CCSc1nc(-c2ccc3c(c2)OCO3)cc(C(F)(F)F)n1,3.5%
Cc1ccc(NC(=O)CCn2nc(C)c3c(C)n(-c4ccccc4)nc3c2=O)cc1Cl,1.2%
CN(C(=O)c1nc(-c2cccc(F)c2)n2c1CCCCC2)c1ccccc1F,-0.4%

# The closing six records of the part above come first, to join the parts.
SMILES,PINK1 modulator
CCc1nn(CC(=O)NCc2ccc(OC)cc2OC)c(=O)c2cc3c(OC)cccc3n12,1.5%
COc1ccc(-c2nn3c(-c4cc(C)[nH]n4)nnc3s2)cc1,0.4%
Cc1ccc(N2C(=O)C(CC(=O)Nc3ccc(F)cc3)N(Cc3ccc4c(c3)OCO4)C2=O)cc1 (stereo unspecified),0.4%
CC(C)NC(=O)CCSc1nc(-c2ccc3c(c2)OCO3)cc(C(F)(F)F)n1,3.5%
Cc1ccc(NC(=O)CCn2nc(C)c3c(C)n(-c4ccccc4)nc3c2=O)cc1Cl,1.2%
CN(C(=O)c1nc(-c2cccc(F)c2)n2c1CCCCC2)c1ccccc1F,-0.4%
Nc1c(Br)cc(/C=C/c2ccnc3ccccc23)cc1Br,-0.1%
Cc1ccc(Nc2ncc(C(=O)Nc3ccc(F)cc3F)c3ccccc23)cc1Cl,4.5%
CCc1ccc(NC(=O)C(Cc2ccccc2)NS(=O)(=O)c2ccc3c(c2)CCN3C(C)=O)cc1 (stereo unspecified),1.5%
COc1cc(C2C(=O)N(C3CCCCC3)CC(=O)N2Cc2ccc(C)cc2)ccc1OC(C)C (stereo unspecified),2.4%
CCOc1ccc(NC(=O)CSc2nc(-c3ccccc3)c3cc(OCC)ccc3n2)cc1,1.9%
COC(=O)c1ccc(CNC(=O)c2nc(Cn3nc(C)c(Br)c3C)no2)cc1,0.5%
CC[N+]1(CC(=O)c2cccs2)CCCCC1,0.0%
O=S(=O)(c1ccc(Cl)cc1)c1nnn2c1nc(NC1CCCC1)c1sccc12,0.4%
COc1cc(OC)c(NC(=O)c2c3c(nn2C)-c2ccccc2SC3)cc1Cl,1.7%
COc1ccc(-c2nc3cc(F)ccc3cc2CN(C(=O)c2cccc(OC)c2)C2CC2)cc1,2.2%
COc1cccc(CNC(=O)Cn2nc(-c3ccc(C)cc3)ccc2=O)c1,1.4%
Cc1cccc(Cn2c(=O)n(CCC(=O)NCCc3ccc(Cl)cc3)c(=O)c3sccc32)c1,0.9%
CCc1ccccc1Nc1nn2c(=O)c3ccc(C(=O)Nc4cc(C)cc(C)c4)cc3nc2s1,2.3%
COc1ccc(NC(=O)CCc2nnc3n(CC(C)C)c(=O)c4ccccc4n23)cc1OC,0.6%
COC(=O)c1ccc(NC(=O)CSc2nc(=O)[nH]c3c2CCCC3)cc1,0.6%
CC(C)(C)OC(=O)N1CCC(c2c(C(=O)N3CCN(c4ccccn4)CC3)cnn2-c2ccc(F)cc2)CC1,-1.1%
COc1ccc(N(C)C(=O)NCc2noc3ccc(C)cc23)c(OC)c1,-0.9%
O=C(c1nc(-c2ccc(Cl)cc2)n2c1CCCCC2)N1CCN(c2ccc(F)cc2)CC1,7.3%
CCc1ccc(OCC(=O)NCC(c2ccc(OC)cc2)N2CCOCC2)cc1 (stereo unspecified),1.4%
CCOc1ccc(CNC(=O)Cn2nc(C)c3nn(-c4ccc(Cl)cc4)c(C)c3c2=O)cc1,1.1%
O=C(Nc1ccc(NC(=O)c2ccc(Br)cc2)c(Cl)c1)c1ccc(Br)cc1,1.0%
COc1ccc(-c2nn(-c3ccc(F)cc3)c3c2cnc2ccc(F)cc23)cc1OC,-0.6%
CCc1ccc(Oc2nc3c(C)cccn3c(=O)c2/C=C(\C#N)c2nc3ccccc3s2)cc1,3.7%
Cc1ccc(OCc2cc(=O)n3c(-c4ccccc4)csc3n2)cc1,3.0%
c1ccc2nc(-c3cc4ccccc4s3)ccc2c1,1.6%
CC(C)(C)OC(=O)N1CCC(c2c(C(=O)NCc3ccccn3)cnn2-c2ccccc2Cl)CC1,0.5%
O=C(c1ccccc1)N1CCc2cc(CNS(=O)(=O)c3ccc(Cl)s3)ccc21,4.6%
Cc1cccc(CN2CCc3nnc(C(C)NC(=O)C4CCOCC4)n3CC2)c1 (stereo unspecified),2.6%
Cc1ccc(CNC(=O)CSc2nc3ccsc3c(=O)n2-c2ccc(Br)cc2)cc1,-0.6%
CCCc1cc(=O)[nH]c2nnc(SCC(=O)Nc3cccc(C)c3)n12,-7.8%
CC(C)Cc1nn2c(=O)cc(COC(=O)c3ccccc3NC(=O)c3cccs3)nc2s1,1.1%
COc1ccc(Cn2ccc3nc(C)c(C(=O)N4CCN(c5cc(C)ccc5C)CC4)cc3c2=O)cc1,1.6%
Cn1c(=O)c2c(-c3ccc(Cl)cc3)ccnc2n(C)c1=O,0.5%
Fc1ccc(N2CCN(Cc3nnc(-c4ccccc4Cl)o3)CC2)cc1,-0.6%
Cc1cc(=O)[nH]c2nnc(SCC(=O)NC(C)(C)C)n12,13%
CC(C)C(=O)Nc1cccc(C(=O)Nc2nnc(C(F)(F)F)s2)c1,2.3%

# Compound activity (PubChem)
